Assay outcomes deposited in PubChem by Broad Institute.
Env fusion inh – blocks HIV Env-driven cell-cell fusion; HeLa-JRFL Env/CEM21 cell fusion, luciferase; inhibition, % at 12.3 µM; 360,000 compounds, 1.1% hits;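 active = mean replicate inhibition score of at least 50 and every replicate individually at or above 50; inconclusive = only one of the two criteria met; inactive = mean below 50 and not all replicates reaching 50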;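 also: 0% = plate neutral controls and 100% = maraviroc near 300 nM; one replicate is shown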
Active calls of the source: *; ? = inconclusive; [ ] = dose if it differs, or a comment. A portion of the library; rates above refer to the full screens.

Cc1ccc(S(=O)(=O)N(C)C[C@@H]2Oc3ccc(NS(=O)(=O)c4ccc(Cl)cc4)cc3C(=O)N([C@@H](C)CO)C[C@@H]2C)cc1
  Env fusion inh = 18[16.7 µM]
CN1CCN(C(=O)C[C@@H]2CC[C@H]3[C@@H](COC[C@@H](O)CN3C(=O)Cc3ccccc3)O2)CC1
  Env fusion inh = -4[16.7 µM]
C[C@@H](NC(=O)N(C)C[C@@H]1OCc2ccccc2-c2ccccc2C(=O)N([C@@H](C)CO)C[C@@H]1C)c1ccccc1
  Env fusion inh = 9[16.7 µM]
C[C@H]1CN([C@@H](C)CO)C(=O)c2cc(NS(=O)(=O)c3ccc(F)cc3)ccc2O[C@@H]1CN(C)S(=O)(=O)c1cn(C)cn1
  Env fusion inh = 11[16.7 µM]
O=C(C[C@@H]1C[C@@H]2c3cc(NC(=O)c4ccc5c(c4)OCO5)ccc3O[C@@H]2[C@H](CO)O1)NCCc1ccccc1
  Env fusion inh = 6[16.7 µM]
CO[C@@H]1CN(C)C(=O)c2ccc(NC(=O)c3cc(C)on3)cc2OC[C@@H](C)N(S(=O)(=O)c2ccccc2)C[C@H]1C
  Env fusion inh = 22[16.7 µM]
O=C(C1CCCC1)N1CC(=O)N2[C@H](C1)[C@H](c1ccc(C#CCc3ccccc3)cc1)[C@@H]2CO
  Env fusion inh = 24[16.7 µM]
COC(=O)C1=C(C)N(Cc2ccccc2C(F)(F)F)C(=NCc2cccc(C(F)(F)F)c2)NC1c1ccc(F)cc1 (stereo unspecified)
  Env fusion inh = -24
COc1ccc2c3c([nH]c2c1)[C@@H](CO)N(C(C)=O)CC31CCN(C(=O)Nc2ccccc2F)CC1
  Env fusion inh = 19[16.7 µM]
CO[C@@H](C(=O)N(C)C[C@H]1OCc2ccccc2-c2ccccc2C(=O)N([C@@H](C)CO)C[C@@H]1C)c1ccccc1
  Env fusion inh = 0[16.7 µM]
CO[C@H](CN(C)S(=O)(=O)c1cccc(Cl)c1)[C@H](C)CN([C@@H](C)CO)S(=O)(=O)c1ccc(Cl)cc1
  Env fusion inh = ?
COC(=O)c1cc2c(c3c4cc(C)ccc4n(S(=O)(=O)c4ccc(C)cc4)c13)C(=O)N(Cc1ccc(C(F)(F)F)cc1)C2
  Env fusion inh = 6
N#Cc1ccc2nc(-c3ccc(CN4CCC5(CC4)CNc4ccccc45)cc3)c(-c3ccccc3)nc2c1
  Env fusion inh = -10
CC(C)NC(=O)Nc1ccc2c(c1)C(=O)N([C@H](C)CO)C[C@H](C)[C@H](CN(C)C(=O)NC1CCCCC1)OCCCC[C@@H](C)O2
  Env fusion inh = -13[16.7 µM]
O=C(C[C@H]1CC[C@H]2[C@@H](COC[C@H](O)CN2C(=O)c2ccccc2)O1)N1CCOCC1
  Env fusion inh = -1[16.7 µM]

O=C(NCC1CC1)[C@H]1[C@H](CO)[C@H]2Cn3c(ccc(-c4ccncc4)c3=O)[C@@H]1N2Cc1nccs1
  Env fusion inh = -6[16.7 µM]
CO[C@@H]1CC[C@@H]2CCOc3c(C#N)cccc3C(=O)N(C)C[C@@H](c3ccccc3)CC(=O)N(C)C[C@H]1O2
  Env fusion inh = -7[16.7 µM]
COc1ccc(S(=O)(=O)Nc2cccc3c2O[C@@H](CN(C)CC2CCCCC2)[C@@H](C)CN([C@H](C)CO)C3=O)cc1
  Env fusion inh = -23[16.7 µM]
COC(=O)[C@]12C[C@H](CC(=O)N3CCOCC3)C(=O)N(CCC3=CCCCC3)C1=C[C@H](C(C)(C)C)O[C@@H]2C
  Env fusion inh = ?
COc1ccc2c(c1)[C@@]1(OCCC=C[C@H]1C)C(=O)N2Cc1ccc(Br)cc1
  Env fusion inh = -23
COC(=O)[C@]12C[C@H](CC(=O)NCCC(C)C)C(=O)N(Cc3ccccc3)C1=C[C@H](C(C)C)O[C@@H]2C1CC1
  Env fusion inh = 19
Nc1[nH]c(C(=O)c2ccc(Br)cc2)c(-c2c(F)cccc2F)c1C(=O)NCCc1c[nH]c2ccccc12
  Env fusion inh = 12
COC(=O)C1=C(C)NC(=S)NC1c1cccc(OC)c1 (stereo unspecified)
  Env fusion inh = -21
C[C@H](CO)N1C[C@H](C)[C@@H](CN(C)C)Oc2ccc(NC(=O)Nc3cccc4ccccc34)cc2C1=O
  Env fusion inh = 0[16.7 µM]
CCOC(=O)C1CSCCS(=O)(=O)N1Cc1ccc(Cl)cc1 (stereo unspecified)
  Env fusion inh = 17
CN1C(=O)c2cc(NC(=O)c3ccc(C#N)cc3)ccc2OC[C@H]2O[C@@H](CC(=O)NCc3ccc4c(c3)OCO4)CC[C@@H]21
  Env fusion inh = 11[16.7 µM]
O=C(C[C@@H]1CC[C@@H](NC(=O)CC2CC2)[C@H](CO)O1)NCc1ccc(Cl)cc1
  Env fusion inh = 27[16.7 µM]
C[C@H]1CN([C@@H](C)CO)C(=O)c2c(c3ccccc3n2C)-c2ccccc2CO[C@@H]1CN(C)C(=O)Nc1ccc(F)cc1
  Env fusion inh = -14[16.7 µM]
CCS(=O)(=O)N1CC(=O)N2[C@@H](CO)[C@H](c3ccc(C#CC4CCCC4)cc3)[C@@H]2C1
  Env fusion inh = -13[16.7 µM]
C[C@@H]1CN([C@@H](C)CO)C(=O)c2cc(C#C[C@@H](C)O)cnc2O[C@@H]1CN(C)C(=O)Cc1ccncc1
  Env fusion inh = -10[16.7 µM]

C[C@@H]1CN([C@@H](C)CO)C(=O)c2ccccc2-c2ccccc2CO[C@@H]1CN(C)C
  Env fusion inh = -17[16.7 µM]
C[C@H]1CN([C@@H](C)CO)C(=O)c2cccc(NC(=O)C3CCCCC3)c2O[C@H]1CN(C)S(=O)(=O)c1ccc(Cl)cc1
  Env fusion inh = 0[16.7 µM]
O=C(C[C@@H]1CC[C@@H](NC(=O)C2CCOCC2)[C@@H](CO)O1)Nc1ccccc1
  Env fusion inh = 1[16.7 µM]
C[C@H]1CN([C@@H](C)CO)S(=O)(=O)c2ccc(-c3ccncc3)cc2O[C@H]1CN(C)C(=O)C1CCC1
  Env fusion inh = 8[16.7 µM]
O=C(C[C@@H]1CC[C@H]2[C@@H](COC[C@H](O)CN2Cc2cc(F)ccc2F)O1)N[C@@H]1CCN(Cc2ccccc2)C1
  Env fusion inh = 9[16.7 µM]
C[C@H](O)[C@@H]1C(=O)N2CCc3c([nH]c4c(-c5ccc6c(c5)OCO6)cccc34)[C@@H]2C[C@@H]1N(C)C(=O)Nc1ccccc1
  Env fusion inh = -18
CCCNC(=O)C[C@@H]1CC[C@@H]2[C@H](COc3ccc(NC(=O)c4ccc(Cl)cc4)cc3C(=O)N2C)O1
  Env fusion inh = 1[16.7 µM]
CC(C)NC(=O)N(C)C[C@@H]1OCCCC[C@@H](C)Oc2ccc(N(C)C)cc2C(=O)N([C@@H](C)CO)C[C@@H]1C
  Env fusion inh = 3[16.7 µM]
CC(C)NC(=O)N(C)C[C@@H]1OCCCC[C@H](C)Oc2ccc(N(C)C)cc2C(=O)N([C@@H](C)CO)C[C@H]1C
  Env fusion inh = 19[16.7 µM]
CC(C)NC(=O)N(C)C[C@H]1OCCCC[C@H](C)Oc2ccc(NC(=O)Cc3ccccc3)cc2C(=O)N([C@@H](C)CO)C[C@@H]1C
  Env fusion inh = -4[16.7 µM]
CCC(=O)N1C[C@H](C)[C@H](OC)CN(C)C(=O)c2ccc(NC(=O)c3ccccc3)cc2OC[C@@H]1C
  Env fusion inh = 9[16.7 µM]
COCC(=O)Nc1ccc2c(c1)[C@@H]1C[C@H](CC(=O)NCc3cccnc3)O[C@H](CO)[C@@H]1O2
  Env fusion inh = -12[16.7 µM]
CCCNC(=O)C[C@@H]1C[C@@H]2c3cc(NC(=O)COC)ccc3O[C@@H]2[C@@H](CO)O1
  Env fusion inh = 7[16.7 µM]
O=C(N[C@@H](Cc1cccnc1)C(=O)N1CCC[C@H]1C(=O)NCCc1ccccc1Cl)c1ccc(Cl)c(Cl)c1
  Env fusion inh = -9
O=C(O)C[C@H]1C[C@@H]2c3cc(NS(=O)(=O)c4ccc(F)cc4)ccc3O[C@@H]2[C@@H](CO)O1
  Env fusion inh = -5[16.7 µM]

An excerpt of these results, bar-delimited.
Structure | Env fusion inh
C[C@H]1CN([C@@H](C)CO)C(=O)c2cccc(NC(=O)C3CCCCC3)c2O[C@H]1CN(C)S(=O)(=O)c1ccc(Cl)cc1 | 0[16.7 µM]
O=C(N[C@@H](Cc1cccnc1)C(=O)N1CCC[C@H]1C(=O)NCCc1ccccc1Cl)c1ccc(Cl)c(Cl)c1 | -9

Molecules shown so far that contain bromine (2):
COc1ccc2c(c1)[C@@]1(OCCC=C[C@H]1C)C(=O)N2Cc1ccc(Br)cc1
  Env fusion inh = -23
Nc1[nH]c(C(=O)c2ccc(Br)cc2)c(-c2c(F)cccc2F)c1C(=O)NCCc1c[nH]c2ccccc12
  Env fusion inh = 12

Following part
CO[C@@H]1CN(C)C(=O)c2ccc(NC(=O)Nc3ccccc3Cl)cc2OC[C@H](C)NC[C@@H]1C
  Env fusion inh = 2[16.7 µM]
C[C@@H]1CN([C@H](C)CO)C(=O)Cc2cc(NC(=O)C3CC3)ccc2O[C@H]1CN(C)Cc1ccc(Cl)c(Cl)c1
  Env fusion inh = 8[16.7 µM]
CCCN(C)C[C@@H]1Oc2cc(C#CCC3CCCC3)ccc2S(=O)(=O)N([C@@H](C)CO)C[C@H]1C
  Env fusion inh = -13[16.7 µM]
O=C(NCC[C@H]1CC[C@@H](NS(=O)(=O)Cc2ccccc2)[C@H](CO)O1)C1CCC1
  Env fusion inh = -10[16.7 µM]
COC(=O)C1=C(C)N(CC(C)C)C(=S)NC1c1cccc(F)c1 (stereo unspecified)
  Env fusion inh = 10
COCC(=O)N1C[C@@H](C)[C@@H](OC)CN(C)C(=O)c2cc(NC(=O)Nc3cccc(F)c3)ccc2OC[C@H]1C
  Env fusion inh = -2[16.7 µM]
CCN1C(=O)N(C(C)=O)[C@@H]2C[C@H](C(=O)N3CCCC3)[C@H](C)[C@H](c3ccccc3)C[C@@H]21
  Env fusion inh = -22
O=S1(=O)c2ccc(Br)cc2OC2CCCN1C2 (stereo unspecified)
  Env fusion inh = 13
CO[C@H]1CN(C)C(=O)c2cccc(C#N)c2OC[C@H]2O[C@H](CC[C@H]2OC)CCN(C)C(=O)[C@H]1C
  Env fusion inh = 9[16.7 µM]
CNC[C@H]1OCc2cnnn2CCCC(=O)N([C@H](C)CO)C[C@H]1C
  Env fusion inh = -16[16.7 µM]
C[C@H]1CN([C@@H](C)CO)C(=O)CCCn2cc(nn2)CO[C@H]1CN(C)C(=O)Nc1ccccc1F
  Env fusion inh = -8[16.7 µM]
C[C@H](O)[C@@H]1C(=O)N2CCc3c([nH]c4c(-c5ccccc5)cccc34)[C@@H]2C[C@@H]1N(C)C(=O)OCc1ccccc1
  Env fusion inh = -18
O=C(NCC(F)(F)F)[C@H]1[C@H](CO)[C@H]2Cn3c(ccc(-c4ccncc4)c3=O)[C@H]2N1Cc1ccncc1
  Env fusion inh = -10[16.7 µM]
COC(=O)[C@]12C[C@H](CC(=O)N3CCN(C(=O)c4ccco4)CC3)C(=O)N(CCC3=CCCCC3)C1=C[C@H](C(C)(C)C)O[C@@H]2C
  Env fusion inh = 74*
CCOC(=O)C1CSCCS(=O)(=O)N1Cc1ccccc1C (stereo unspecified)
  Env fusion inh = -18

CCS(=O)(=O)Nc1ccc2c(c1)C(=O)N(C)C[C@H](OC)[C@H](C)CN(Cc1ccccn1)[C@H](C)CO2
  Env fusion inh = -9[16.7 µM]
O=C(C[C@@H]1C[C@@H]2c3cc(NC(=O)c4ccc5c(c4)OCO5)ccc3O[C@@H]2[C@H](CO)O1)NCc1cc(F)ccc1F
  Env fusion inh = -7[16.7 µM]
CN(C)c1ccc2c(c1)[C@@H]1C[C@@H](CC(=O)NCc3ccc(Oc4ccccc4)cc3)O[C@@H](CO)[C@@H]1O2
  Env fusion inh = -212[16.7 µM]
CN1c2ccc(-c3cccc(C#N)c3)cc2[C@H]2[C@H](CCN2C(=O)NC2CCCC2)[C@@H]1CO
  Env fusion inh = -11[16.7 µM]
CO[C@@H]1CN(C)C(=O)c2ccc(NC(=O)Nc3c(C)noc3C)cc2OC[C@@H](C)N(CC2CC2)C[C@@H]1C
  Env fusion inh = -4[16.7 µM]
C[C@H](CO)N1C[C@H](C)[C@@H](CN(C)C(=O)N[C@H](C)c2ccccc2)OCc2ccccc2-c2c(n(C)c3ccccc23)C1=O
  Env fusion inh = 23[16.7 µM]
C[C@@H]1CCCCO[C@@H](CN(C)Cc2ccccc2)[C@@H](C)CN([C@H](C)CO)C(=O)c2cc(NS(C)(=O)=O)ccc2O1
  Env fusion inh = -1[16.7 µM]
C[C@@H]1CN([C@@H](C)CO)C(=O)Cc2cc(NS(=O)(=O)c3cn(C)cn3)ccc2O[C@H]1CN(C)Cc1ccc(-c2ccccc2)cc1
  Env fusion inh = 20[16.7 µM]
O=C(NC[C@H]1CC[C@@H]2[C@@H](CN2Cc2ccccc2F)O1)C1CC1
  Env fusion inh = 20[16.7 µM]
CO[C@@H]1CN(C)C(=O)c2ccc(NC(=O)c3nc4ccccc4s3)cc2OC[C@H](C)NC[C@@H]1C
  Env fusion inh = -8[16.7 µM]
CO[C@@H]1CN(C)C(=O)c2cc(NC(=O)NC(C)C)ccc2OC[C@H](C)N(C(=O)C2CCC2)C[C@@H]1C
  Env fusion inh = 8[16.7 µM]
C[C@H]1CN([C@@H](C)CO)C(=O)c2ccccc2-c2ccccc2CO[C@@H]1CN(C)S(=O)(=O)c1ccc(C(F)(F)F)cc1
  Env fusion inh = 22[16.7 µM]
C/C=C/c1cccc(-c2nc(C(=O)NCc3ccc(OC)cc3)cc3c2[C@H](CCO)N([S@@](=O)C(C)(C)C)C3)c1
  Env fusion inh = -11[16.7 µM]
C[C@@H]1CN([C@@H](C)CO)C(=O)c2cc(NC(=O)Nc3cccc4ccccc34)ccc2O[C@@H](C)CCCCO[C@@H]1CN(C)C
  Env fusion inh = 2[16.7 µM]
C[C@@H]1CCCCO[C@@H](CN(C)C)[C@@H](C)CN([C@@H](C)CO)C(=O)c2cc(NS(=O)(=O)c3cn(C)cn3)ccc2O1
  Env fusion inh = 5[16.7 µM]
O=C(C[C@H]1C[C@H]2c3cc(NC(=O)C4CCOCC4)ccc3O[C@H]2[C@@H](CO)O1)NCc1ccc(Oc2ccccc2)cc1
  Env fusion inh = -5[16.7 µM]
Cc1ccccc1S(=O)(=O)NCC[C@@H]1CC[C@H](NS(=O)(=O)c2ccccc2C)[C@@H](CO)O1
  Env fusion inh = -3[16.7 µM]
